Compound activity: PubChem, several laboratories
HSV replic up – increases HSV replication in cells | HSV replication augmentation in cells, fold increase | 220,000 compounds, 0.005% hits | maximum fold increase;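 active = peak rise of 1.5-fold or more in the series; inconclusive = self-fluorescent or not available for retest; tested in PC3 cells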;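 also: first round at 10 µM; read as green reporter fluorescence; hits show the peak of a series up to 25 µM; 1 = signal of infected wells without compound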
RGS16-Gao HTS – RGS16-Galphao interaction regulator (human); O15492+P09471; bead-based flow cytometry RGS16-Galphao binding, fluorescence; actives lie on both sides; binding response (% of control), % at 10 µM; 220,000 compounds, 0.38% hits;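 active = below 25% or above 175%, edge rows of some plates excepted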;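 also: Galphao activated by GDP with aluminum fluoride before binding; 100% = wells without compound and 0% = beads without RGS; some results beyond the cut were filed as inactive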
Target sequence (O15492 whole entry, looked up): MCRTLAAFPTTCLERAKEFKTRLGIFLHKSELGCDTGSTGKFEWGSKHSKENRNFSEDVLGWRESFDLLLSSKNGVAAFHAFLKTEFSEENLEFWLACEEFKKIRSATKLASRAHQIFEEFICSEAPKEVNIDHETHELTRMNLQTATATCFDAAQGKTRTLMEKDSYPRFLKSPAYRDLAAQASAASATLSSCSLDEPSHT
Target sequence (P09471 whole entry, looked up): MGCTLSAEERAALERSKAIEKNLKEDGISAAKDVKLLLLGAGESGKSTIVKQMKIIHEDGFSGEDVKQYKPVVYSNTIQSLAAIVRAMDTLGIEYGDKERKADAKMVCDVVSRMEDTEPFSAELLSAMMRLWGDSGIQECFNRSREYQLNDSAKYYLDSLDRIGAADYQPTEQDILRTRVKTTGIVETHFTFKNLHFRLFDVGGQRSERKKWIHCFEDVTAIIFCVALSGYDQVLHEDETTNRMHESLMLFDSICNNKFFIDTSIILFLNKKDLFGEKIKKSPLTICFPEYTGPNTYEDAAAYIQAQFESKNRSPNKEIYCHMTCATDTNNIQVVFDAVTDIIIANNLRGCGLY
GALR2 agonist – agonists of human galanin receptor 2 (GALR2). activation, %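 (tested at 5 µM)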. AID 803. 140,000 compounds, 0.48% hits. GALR2-expressing cells, agonist activation read-out;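 active = above mean plus 3 SD of all compounds, about 5% in these data, not always enough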;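 also: 0% = vehicle buffer wells and 100% = reference agonist at full effect; tested in CHO reporter cells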
Target sequence (O43603 whole entry, looked up): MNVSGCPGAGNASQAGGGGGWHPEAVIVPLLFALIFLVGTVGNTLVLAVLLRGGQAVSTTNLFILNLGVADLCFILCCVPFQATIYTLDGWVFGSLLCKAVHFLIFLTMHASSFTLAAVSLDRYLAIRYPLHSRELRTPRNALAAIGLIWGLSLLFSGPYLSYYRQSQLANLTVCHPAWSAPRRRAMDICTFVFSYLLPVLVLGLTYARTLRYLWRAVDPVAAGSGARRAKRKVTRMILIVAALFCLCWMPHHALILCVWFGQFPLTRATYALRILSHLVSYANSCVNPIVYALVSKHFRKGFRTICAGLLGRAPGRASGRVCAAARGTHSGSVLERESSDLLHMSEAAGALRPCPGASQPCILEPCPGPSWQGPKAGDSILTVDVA
Insulin prom inh – TRM-6 insulin promoter activity inhibition | TRM-6 cells (human fetal islet line), insulin promoter-eGFP reporter, imaging; reporter expression induced with tamoxifen | inhibition, % at 2 µM | 130,000 compounds, 0.9% hits | AID 1273;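 active = inhibition above the mean plus 3 SD, with well images judged a real hit on visual review, cut at about 60% in these data, passing the limit was not always enough; inconclusive = inhibition over the cutoff but images rejected on review; inactive = inhibition not above the cutoff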
PKD1 inh – PKD1 (human) kinase inhibition; PKD1 kinase fluorescence polarization assay; Q15139; AID 797; inhibition, %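 (about 10 µM by stock and volumes)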; 200,000 compounds, 0.056% hits;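 active = inhibition of 50% or more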;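 also: controls were vehicle for no effect and a reference inhibitor for full effect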
Insulin prom inh cell count – second read-out of Insulin prom inh, no call of its own (marks repeat the call); normalized cell count, %; measured here: cell count, toxicity; reference of the scale not given here;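 cells exposed to compound for 48 h; stained nuclei by imaging scaled within each plate; lower means fewer cells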
HSV replic up primary fold – recorded beside HSV replic up, whose call it bears; fold increase; compound at 10 µM; measured here: primary screen fold increase 10 uM; tested in PC3 cells;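 GFP signal in the first replicate; 1 = infected wells without compound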
* = called active by the depositor; i = inactive; u = inconclusive; x = no result given. Outcome played no part in choosing rows; overall some 1.3% were active at least once.

compound	HSV replic up	HSV replic up primary fold	RGS16-Gao HTS	GALR2 agonist	Insulin prom inh	Insulin prom inh cell count	PKD1 inh
COc1cc(/C=C/c2noc(-c3ccccc3O)n2)ccc1OC(C)=O	i	0.9	100	x	x	x	x
S=C(c1ccc(-c2ccc(Cl)c(Cl)c2)o1)N1CCOCC1	i	0.91	108	-0.5	x	x	-4
CN(C)S(=O)(=O)c1cc(NC(=O)CN2CCN(c3ccccc3)CC2)ccc1Cl	i	1.1	105	0.1	x	x	-6
COc1cccc(C2NC(=O)c3ccccc3O2)c1OC (stereo not given)	i	0.83	107	-1.2	6	105	-1
CCn1c2ccccc2c2cc(N)ccc21	i	0.93	99	-2.2	-67	130	-9
CCOC(=O)C(NC(=O)CC)(Nc1nc2c(s1)CCCC2)C(F)(F)F (stereo not given)	i	0.96	111	-2.4	0	126	-9
Cc1ccc(COc2ccc(/C=N/NC(=O)c3nnn(-c4nonc4N)c3COc3ccc(F)cc3)cc2)cc1	i	0.65	94	x	x	x	x
CCn1c(Cc2ccccc2)nnc1SCC(=O)Nc1ccc(S(N)(=O)=O)cc1	i	1.1	96	-3.2	62	64	3
CCN(C(=O)c1ccco1)c1nc(CC(=O)Nc2ccc(Cl)cc2)cs1	i	1	104	-0.1	-9	106	-10
COc1ccc2c(Cl)c(C(=O)NCCCn3ccnc3)sc2c1	i	0.92	101	-2.2	-485	77	-6
Cc1cccc(C)c1NC(=O)COc1ccccc1C(=O)Nc1ccc(Br)cn1	i	0.77	104	2.5	54	79	-9
COc1ccc(C)cc1NC(=S)N1CCN(c2ccccn2)CC1	i	1.1	108	-1.1	x	x	-5
CCn1cc(C(=O)Nc2ccccc2)c(=O)c2ccc(C)nc21	i	0.88	104	x	x	x	-13
Cn1c(=O)c2c(SCC(=O)N3CCOCC3)nc(C3CC3)nc2n(C)c1=O	i	0.91	100	-1.6	x	x	1
CC1CCC2(CC1)NC(=O)N(CC(=O)c1cn(CCC#N)c3ccccc13)C2=O (stereo not given)	i	0.89	96	x	x	x	x
COc1ccc(CC(=O)Nc2ccc(N3CCOCC3)cc2)cc1S(=O)(=O)N1CCOCC1	i	0.92	95	x	x	x	x
COc1cccc(NC(=O)Cc2ccccc2)c1	i	0.86	98	-1.8	73*	111*	-1
Cc1cc(C)c(C)c(S(=O)(=O)N2CCN(C)CC2)c1C	i	1.1	109	x	-17	148	3
N#Cc1cc(-c2ccccc2)oc1NC(=O)c1ccccc1	i	0.92	105	-1.2	36	74	-2
CN(C(=O)CN1C(=O)c2ccccc2S1(=O)=O)c1ccccc1C(=O)O	i	1	97	-2.9	15	59	-3
O=C(NC(NC1CCS(=O)(=O)C1)C(=O)c1ccccc1)c1ccc(Cl)cc1 (stereo not given)	i	0.89	104	-0.5	x	x	-6
N#CCCn1cc(/C=N/O)c(-c2ccc(-c3ccccc3)cc2)n1	i	0.66	94	-3.7	x	x	1
CCn1c(SCC(=O)Nc2ccc(Cl)cc2)nnc1C1CC1	x	x	105	-0.2	-27	93	-4
CN1CN(C)c2cccc3cccc1c23	i	0.84	103	-0.6	0	62	0
S=C(c1ccc2c(c1)OCO2)N1CCCC1	i	0.79	115	-3.1	-56	95	-7
C#CCOCCOCCOCCNc1nc(N2CCN(C(=O)[C@H](CCC(=O)O)n3cc(C(N)CC(C)C)nn3)CC2)nc(N2CCN(C(=O)[C@H](Cc3ccc(O)cc3)n3cc(C(N)[C@H](C)CC)nn3)CC2)n1 (stereo not given in full)	x	x	100	x	x	x	-9
O=C1C2C3C=CC(CO)(O3)C2C(=O)N1c1ccccc1-c1ccccc1 (stereo not given)	i	0.75	98	-0.9	x	x	-4
COc1cccc(N2CCN(C(=S)Nc3cc(C)cc(C)c3)CC2)c1	i	1.1	95	x	x	x	1
O=C(Nc1ccc(F)cc1)c1ccc2nc[nH]c2c1	i	0.96	105	x	x	x	-1
Cn1ccnc1C(=O)c1ccc(S(=O)(=O)N2CCCC2)cc1	i	0.89	99	x	x	x	0
Cc1c(NC(=O)c2cccs2)cccc1-c1nc2ccccc2s1	i	0.94	99	2.1	-18	96	-11
CCCCOc1ccc(/C=C/C2=CC(C)(C)NC(=S)N2)cc1OCC	i	0.97	99	x	x	x	-6
Cc1ccc(S(=O)(=O)N(CC(=O)N2CCc3ccccc3C2)c2cccc(Cl)c2)cc1	i	0.97	118	0.5	0	99	-9
CC(=O)Nc1ccc(S(=O)(=O)N2CCC(c3nc4ccc(C)cc4[nH]3)CC2)cc1	i	0.87	99	-1.5	-11	105	-8
CN1CCC(OC(=O)Cc2ccc(Cl)cc2)CC1	i	1	68	x	x	x	0
COc1ccc(C2C(C(=O)N3CCN(c4ccccn4)CC3)CC(=O)N2c2ccc(OC)cc2)cc1 (stereo not given)	i	0.8	99	-0.2	48	109	-11
COc1ccc(NC(=O)CSc2nc3ccccc3c(=O)n2CCCN2CCC(C)CC2)c(OC)c1	i	0.58	103	x	-27	96	-1
CCOc1ccc(NC(=O)C(c2ccccn2)N(C(=O)CCl)c2ccc(OCC)cc2)cc1 (stereo not given)	i	1	98	-0.4	40	84	3
O=C(c1ccccc1C(=O)N1CCN(c2ccccc2F)CC1)N1CCN(c2ccccc2F)CC1	i	0.9	100	-1.1	0	80	6
CCOC(=O)c1cnc(SC)nc1Sc1ccc(Cl)cc1Cl	i	1.2	96	-4.3	6	107	2
O=C(CCN1C(=O)/C(=C/c2ccccc2)SC1=S)NNC(=O)c1ccncc1	i	0.97	98	x	x	x	3
COc1ccc(C)cc1NC(=O)CSc1nnc(CC(=O)Nc2ccccc2C)n1C	i	1.3	101	-0.5	67*	51*	-4
COc1ccc(NS(=O)(=O)c2c(C)cc(C)cc2C)cc1	i	0.82	98	-0.2	6	43	2
Cc1ccccc1N1C(=O)C(Oc2ccc(Cl)cc2)C1CNCCCOC(C)C (stereo not given)	i	0.81	109	-1.1	-10	88	-4
COc1ccc(/C=C/C2=CCN(Cc3ccc(OC)cc3)CC2)cc1	i	0.81	101	x	-23	72	-4
CC(C)N(C(=O)CS(=O)(=O)c1ccc(Cl)c(Cl)c1)C(C)C	i	0.95	100	x	-19	84	-3
C/C(=N\NC(=O)c1cc(-c2ccncc2)nc2ccccc12)c1ccc(N2CCOCC2)cc1	i	0.74	97	x	x	x	-7
COc1ccccc1CNC(=O)C1CC(c2ccccc2F)=NO1 (stereo not given)	i	0.76	99	x	x	x	x
CC(=O)Nc1ccc(NC(=O)C2CCN(c3c(Cc4ccccc4)c(C)nc4ncnn34)CC2)cc1	i	0.81	105	-1.7	-31	112	6
N#C/C(=C\c1ccc(Cl)cc1)C(=O)Nc1cccnc1	i	1.1	103	x	x	x	x
Nc1nc(-c2ccc(Cl)cc2)nnc1-c1ccc(Br)cc1	i	0.97	99	x	x	x	11
CCOc1ccc2nc(SCC(=O)N3CCCCCC3)c(C#N)cc2c1	i	0.87	108	0.4	-30	87	-6
COc1ccccc1C(=O)n1nc(-c2ccccc2)nc1NCc1ccco1	i	1.1	101	-2.1	-26	69	0
COc1ccc(Cn2c(=O)sc3ccccc32)cc1	i	0.69	84	-2.2	x	x	-7
CCCC(C(=O)NC1CCCC1)N(Cc1cccs1)C(=O)c1snc(C(N)=O)c1N (stereo not given)	i	1	59	-0.5	x	x	-2
Cc1cc(=O)[nH]c(SCc2cccc(F)c2)n1	i	0.91	101	-1.9	-10	81	-6
CCOC(=O)N1CCN(C(=O)c2cccc(-n3c(=S)[nH]c4cc(Cl)ccc4c3=O)c2)CC1	i	0.84	103	0.7	-14	133	2
Cc1c(/C=C(\CC(=O)O)c2nc3ccccc3s2)cc(C#N)n1C	i	1	99	x	x	x	x
COc1ccc(NC(=O)Nc2cc(C)ccc2OC(F)F)c(OC)c1	i	0.86	x	-3.0	-45	117	-3
Cc1cccc(C(=O)c2c(N)sc3c2CCC(C)C3)c1 (stereo not given)	i	0.97	97	-0.1	x	x	4

Following part
compound	HSV replic up	HSV replic up primary fold	RGS16-Gao HTS	GALR2 agonist	Insulin prom inh	Insulin prom inh cell count	PKD1 inh
O=C(N/N=C\c1cc(Cl)ccc1O)c1ccc(S(=O)(=O)N2CCCCC2)cc1	i	0.9	92	6.9*	44	67	3
COc1ccc(CCNc2nnc(Sc3nnnn3-c3ccccc3)s2)cc1OC	i	0.52	100	-1.8	x	x	-17
CC(=O)c1ccc(N2CCN(C(=S)NCCCN(C)C)CC2)cc1	i	0.96	97	x	x	x	6
Cc1ccc(CS(=O)(=O)Cc2ccc(C(=O)NCc3cccnc3)o2)cc1	i	1.3	103	-0.8	-15	81	-3
O=C(N/N=C\c1ccc([N+](=O)[O-])o1)C1COc2ccccc2O1 (stereo not given)	i	0.91	99	x	x	x	-7
O=C(/C=C/c1ccccc1Cl)NNC(=O)c1cccs1	i	0.9	104	x	-13	96	-3
O=C(CN1C(=O)c2ccccc2S1(=O)=O)NCCC1=CCCCC1	i	1.1	91	-2.2	-9	58	-3
CCc1ccccc1S(=O)(=O)Cc1ccc(C(=O)N2CCN(c3ccccn3)CC2)o1	i	0.79	220	-3.1	x	x	13
O=C(Nc1cccc(-n2cnnn2)c1)c1ccco1	i	0.88	106	-1.3	x	x	5
Cc1ccc(NC2CC(=O)N(c3ccc(N4CCCCC4)cc3)C2=O)cc1 (stereo not given)	i	0.89	98	-0.4	43	108	-6
CC1=NNC(=O)C1Cc1ccc(F)cc1 (stereo not given)	i	1.2	95	x	x	x	x
Cc1ccc(N2CCN(C(=O)c3cccc([N+](=O)[O-])c3)CC2)cc1Cl	i	0.87	99	x	53	59	1
O=c1cnc2cc([N+](=O)[O-])ccc2[nH]1	i	1	49	x	x	x	-1
CCc1ccc2c(CN3CCN(S(=O)(=O)c4ccc5c(c4)OCCO5)CC3)cc(=O)oc2c1	i	0.9	87	-3.3	-6	74	5
COC(=O)NNC(=O)COc1ccc(Cl)cc1	i	0.97	96	-0.8	i	53	-6
CCOC(=O)CN(C)S(=O)(=O)c1ccc(-c2cc(C(=O)OC)sc2C(F)(F)F)cc1	i	1.2	100	x	x	x	x
Cc1cc(O)ccc1-c1cnc2ccccc2n1	i	0.93	97	-0.3	x	x	8
O=C(Nc1ccccc1)N1CCOCC1	i	1.1	101	-3.6	24	138	-9
CC[N+]1=C(C)C(C)(C)c2cc(C)ccc21	u	x	103	x	-488	55	-5
CC(=O)N/N=C/c1cc2c(cc1[N+](=O)[O-])OCO2	i	1	100	x	x	x	4

3 structures from above, arranged by heavy-atom count, ascending.
compound	HSV replic up	HSV replic up primary fold	RGS16-Gao HTS	GALR2 agonist	Insulin prom inh	Insulin prom inh cell count	PKD1 inh
CC1=NNC(=O)C1Cc1ccc(F)cc1 (stereo not given)	i	1.2	95	x	x	x	x
Cc1ccc(S(=O)(=O)N(CC(=O)N2CCc3ccccc3C2)c2cccc(Cl)c2)cc1	i	0.97	118	0.5	0	99	-9
O=C(c1ccccc1C(=O)N1CCN(c2ccccc2F)CC1)N1CCN(c2ccccc2F)CC1	i	0.9	100	-1.1	0	80	6

11 neighbouring compounds already listed, for reference:
compound	HSV replic up	HSV replic up primary fold	RGS16-Gao HTS	GALR2 agonist	Insulin prom inh	Insulin prom inh cell count	PKD1 inh
O=C(CN1C(=O)c2ccccc2S1(=O)=O)NCCC1=CCCCC1	i	1.1	91	-2.2	-9	58	-3
CCc1ccccc1S(=O)(=O)Cc1ccc(C(=O)N2CCN(c3ccccn3)CC2)o1	i	0.79	220	-3.1	x	x	13
O=C(Nc1cccc(-n2cnnn2)c1)c1ccco1	i	0.88	106	-1.3	x	x	5
Cc1ccc(NC2CC(=O)N(c3ccc(N4CCCCC4)cc3)C2=O)cc1 (stereo not given)	i	0.89	98	-0.4	43	108	-6
CC1=NNC(=O)C1Cc1ccc(F)cc1 (stereo not given)	i	1.2	95	x	x	x	x
Cc1ccc(N2CCN(C(=O)c3cccc([N+](=O)[O-])c3)CC2)cc1Cl	i	0.87	99	x	53	59	1
O=c1cnc2cc([N+](=O)[O-])ccc2[nH]1	i	1	49	x	x	x	-1
CCc1ccc2c(CN3CCN(S(=O)(=O)c4ccc5c(c4)OCCO5)CC3)cc(=O)oc2c1	i	0.9	87	-3.3	-6	74	5
COC(=O)NNC(=O)COc1ccc(Cl)cc1	i	0.97	96	-0.8	i	53	-6
CCOC(=O)CN(C)S(=O)(=O)c1ccc(-c2cc(C(=O)OC)sc2C(F)(F)F)cc1	i	1.2	100	x	x	x	x
Cc1cc(O)ccc1-c1cnc2ccccc2n1	i	0.93	97	-0.3	x	x	8
